Screening data (PubChem BioAssay)
LT uptake inh: blocks cellular internalization of anthrax lethal toxin. Potency, µM (highest dose often 40 µM), for inactives: at the highest dose activity change, negative = inhibition, most hits filed as inhibitors. Cells, anthrax lethal toxin internalization, FRET ratio (460/530). actives 0.67% (n = 70,000); active = well fitted falling ratio curve with the 530 nm signal flat; inconclusive = other ratio curves, or a change in one channel alone; inactive = flat curves in the ratio and both channels; the % refers to the ratio; also: % is scaled to controls: 0 for no effect and ±100 for the full control effect; nearly all actives have a fitted effect of over 50% in size; tested in ME-180 cells; beta-lactamase reporter
SmPrx2 inh: inhibitors of Schistosoma mansoni peroxiredoxin 2 | actives 0.07% (n = 65,000) | Potency, µM | S. mansoni Prx2 activity coupled to TGR/GSH (TGR is thioredoxin glutathione reductase), NADPH fluorescence loss, qHTS; some inactives read as strong as hits; active means full or partial inhibition curve with a strong effect at the top dose; inconclusive means weaker partial or single-point curve; inactive means no accepted curve; also: series up to 57 µM; many of its hits are not listed in these tables
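Prx2 activity was followed as the loss of NADPH fluorescence (ex 365/em 450 nm), read every 30 sec for 8 min after H2O2 start. The enzyme mix (50 nM Prx2, 25 nM TGR, GSH, NADPH; pH 7.4 phosphate buffer) was incubated with compound for 15 min at room temperature first.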
* = called active by the depositor; ? = inconclusive; / = not tested or not shown; & = joins results of further samples; [ ] = another dose, or the depositor's remark. Potency is read from the fitted curve at half-maximal effect.

No.	molecule	LT uptake inh	SmPrx2 inh
1	Cc1noc(NS(=O)(=O)c2ccc(NC(=O)c3cnc4scc(C)n4c3=O)cc2)c1C	1%	>57
2	Cc1c(-c2ccccc2)[n+](=O)c(-c2ccco2)c(C)n1[O-]	-9%	?
3	O=C(NCC(=O)N(Cc1ccco1)C(C(=O)NC1CCCC1)c1cccnc1)c1cccs1 (configuration not stated)	7%	>57
4	Nc1c(S(=O)(=O)O)cc(Nc2cccc(S(N)(=O)=O)c2)c2c1C(=O)c1ccccc1C2=O	?	>57
5	Nn1c(Cc2ccccc2F)nnc1SCC(=O)N1CC(=O)Nc2ccccc21	3%	>57
6	CCCn1c(SCc2ccccc2)nc2c1c(=O)[nH]c(=O)n2C	-11%	>57
7	CCOC(=O)C1=C(O)CSC1=Nc1ccccc1	22%	/
8	NC1=NC2(CCN(Cc3ccccc3)CC2)n2c(nc3ccccc32)N1	-11%	>57
9	O=C(CN1C(=O)CN=C(c2ccccc2Cl)c2cc(Cl)ccc21)NCc1ccco1	?	>57
10	C[C@@H]1CCC[C@H](C)N1NC(=O)c1ccc(Cl)c(S(N)(=O)=O)c1	-3%[3.58 µM]	>57
11	O=C(COc1ccc2ccccc2c1Br)N1CCOCC1	?	>57
12	COc1ccc(CCNC(=O)c2ccc(CNc3c(N4CCOCC4)c(=O)c3=O)cc2)cc1OC	-8%	>57
13	O=C(Nc1nc(-c2cc3ccccc3oc2=O)cs1)c1ccco1	?	>57
14	C[N+]12CN3CN(CN(C3)C1)C2	-4%	>57
15	CN(C)S(=O)(=O)Nc1ccc(C(=O)O)cc1	?	>57
16	CC(C)[C@]12CC(=O)[C@H](C)[C@H]1C2	4%	/
17	CC1CCCC(C)N1C(=O)CSc1nnnn1Cc1ccccc1 (configuration not stated)	-6%	>57
18	CN1CCN(CCCNC(=O)CCCOc2cc(=O)n(C)c3ccccc23)CC1	15%	>57
19	CC(NC(=O)C(C)(C)C)c1nc2ccccc2n1C (configuration not stated)	5%	>57
20	C=CCSc1nnc2c(n1)OC(c1cccnc1)Nc1ccccc1-2 (configuration not stated)	-10%	>57

Some of the entries above, set out differently.
[19] CC(NC(=O)C(C)(C)C)c1nc2ccccc2n1C (configuration not stated)
  LT uptake inh: 5%; SmPrx2 inh: >57

[3] O=C(NCC(=O)N(Cc1ccco1)C(C(=O)NC1CCCC1)c1cccnc1)c1cccs1 (configuration not stated)
  LT uptake inh: 7%; SmPrx2 inh: >57

[1] Cc1noc(NS(=O)(=O)c2ccc(NC(=O)c3cnc4scc(C)n4c3=O)cc2)c1C
  LT uptake inh: 1%; SmPrx2 inh: >57

[16] CC(C)[C@]12CC(=O)[C@H](C)[C@H]1C2
  LT uptake inh: 4%; SmPrx2 inh: /

More records.
No.	molecule	LT uptake inh	SmPrx2 inh
21	Cc1ccccc1NS(=O)(=O)c1ccc(OCC(=O)N2CCCC2)cc1	4%	/
22	C[C@@H](O)CN(CCN(C[C@@H](C)O)C[C@@H](C)O)C[C@@H](C)O.O=[N+]([O-])O.[Cu]	?	>57
23	CCCCOCCCn1cnc2c([nH]c3cc(OC)ccc32)c1=O	?	>57
24	CC(=O)N1CCc2c(sc(NC(=O)C3CC3)c2-c2nc3ccccc3s2)C1	6%	>57
25	c1ccc2c(c1)CCN2CCN1CCc2ccccc21	?	>57
26	COc1ccc(C(=O)Nc2ccc(C)cn2)c(OC)c1	11%	>57
27	Cc1cccc(C)c1OCC(=O)NCc1nnc(SCC(=O)NC2CCCCC2C)n1C (configuration not stated)	3%	>57
28	Cc1c(NC(=O)CCC2CCCCC2)c(=O)n(-c2ccccc2)n1C	-2%	>57
29	COc1ccc(C(=O)NCc2nnc(SCC(=O)NCc3ccc(F)cc3)o2)cc1	11%	>57
30	Cc1cccc(OCC(=O)NCc2ccncc2)c1C	-5%	>57
31	CCCCn1c(O)c(C(C)=NCc2ccc(F)cc2)c(=O)[nH]c1=O	11%	>57
32	COc1ccccc1NC(=O)CSc1nc(N)cc(N)n1	12%	>57
33	O=C(Nc1cccc2c1CCCC2)c1ccc(Br)o1	?	/
34	CCOC(=O)CSC1=C(C#N)C(c2sccc2C)CC(=O)N1 (configuration not stated)	-23%	>57
35	Cc1nc2ncnn2c(C)c1CCC(=O)NC(C)c1ccc2c(c1)OCCO2 (configuration not stated)	-11%	>57
36	CC(C)COc1ccc(C(=O)OC2CC(C)(C)OCC2CN(C)C)cc1 (configuration not stated)	/	>57
37	CSCC[C@H](NC(=O)OC(C)(C)C)c1nnc(SCC=C(C)C)o1	?	>57
38	COc1ccc(C(C)NC(=O)c2ccoc2C)cc1OC (configuration not stated)	2%	>57
39	Cc1ccc(C(=O)C(NC(=O)c2ccco2)N2CCOCC2)cc1 (configuration not stated)	10%	>57
40	COc1ccc(CCNC(=O)CSc2nncn2N)cc1OC	-21%	>57

Going on with the list.
No.	molecule	LT uptake inh	SmPrx2 inh
41	COCCn1nnnc1CN1CCC(NC(=O)Nc2cccc(OC)c2)CC1	3%	>57
42	Cc1cc(CC(C)C)n(-c2nc3ccccc3c(=O)n2OCC(=O)N(C)C)n1	0%	>57
43	COC(=O)C1=C(C)NC(C)=C(C(=O)OC)C1c1ccc(OC(=O)c2ccco2)cc1	11%	/
44	Cc1nc2ncnn2c(C)c1CCC(=O)N1CCc2ccccc2C1	10%	>57
45	O=c1oc2ccccc2cc1-c1cn2cccnc2n1	4%	>57
46	CC(=O)c1c(N)c(C#N)c(C)n1-c1ccc(Br)cc1	-4%	>57
47	CC(=O)Nc1ccc(-c2cn3cccnc3n2)cc1	-22%	>57
48	CCOC(=O)N1CCN(S(=O)(=O)c2cccc3nonc23)CC1	6%	>57
49	CCN(CC)CCCNC(=O)c1cc(-c2ccc(Cl)cc2)on1	?	>57
50	COc1ccc(CCn2nnnc2C(c2ccc(Cl)cc2)N2CCN(C)CC2)cc1OC (configuration not stated)	-14%	>57
51	CCc1[nH]c(C)c(C(C)=O)c1C	-1%	>57
52	Cc1cccc(OCC(=O)N2CCN(C(=O)Cc3ccccc3)CC2)c1	-12%	/
53	COc1ccc2[nH]cc(CCN(C)C)c2c1	-29%	>57
54	CCOC(=O)N1CCN(CC(O)c2ccc3cc[nH]c3c2)CC1 (configuration not stated)	-6%	>57
55	CCCN1Cc2cccc(C(=O)Nc3ccc4c(c3)OCCO4)c2C1=O	?	>57
56	O=C(O)c1cc2c(cc1S(=O)(=O)O)[C@H]1[C@@H]([C@H]3[C@H]2[C@@]2(Cl)C(Cl)=C(Cl)[C@]3(Cl)C2(Cl)Cl)[C@]2(Cl)C(Cl)=C(Cl)[C@@]1(Cl)C2(Cl)Cl	-10%[8 µM]	>57
57	COC(=O)c1c(C(=O)OC)c2cc(C)ccn2c1Cl	-8%	>57
58	CC1CCCCC1NC(=O)CSc1nnc(CN2CCOCC2)n1C (configuration not stated)	-2%	>57
59	CCCOc1ccccc1C1CC(=O)Nc2cc3c(cc21)OCCO3 (configuration not stated)	-14%	>57
60	COc1ccc2cc(S(=O)(=O)N3CCCCC3)ccc2c1S(=O)(=O)N1CCCCC1	-7%	>57

New compounds follow.
No.	molecule	LT uptake inh	SmPrx2 inh
61	c1ccc(-c2oc3ncnc(N4CCOCC4)c3c2-c2ccccc2)cc1	3%	>57
62	CCNc1ccccc1	-3%	/
63	COCCOC(=O)C1=C(C)N=C2SCCC(=O)N2C1/C=C/c1ccccc1 (configuration not stated)	11%	>57
64	Cc1oc(C)c2c(=O)ccc3c(c12)OC(N)=C(C#N)C3c1ccccc1Cl (configuration not stated)	?	>57
65	C=CCn1c2ccccc2c2nnc(SCN3C(=O)c4ccccc4C3=O)nc21	-16%	>57
66	C[C@@H]1C[C@H]2[C@@H]3CCC4=CC(=O)C=C[C@]4(C)[C@@]3(F)[C@@H](O)C[C@]2(C)[C@@]1(O)C(=O)CO	-2%	/
67	CN(C)CCCN1C(=O)C(=O)/C(=C(/O)c2ccncc2)C1c1cccnc1 (configuration not stated)	/	>57
68	COc1ccccc1-n1c(SCC(N)=O)nnc1-c1ccc(S(=O)(=O)N2CCCCC2)cc1	?	>57
69	CCn1cc(C(=O)NCCCN2CC(C)CC(C)C2)c(=O)c2cc(S(=O)(=O)N(C)C)ccc21 (configuration not stated)	-19%	>57
70	C[C@H](Br)CN(C[C@H](C)Br)c1ccc2c(c1)Cc1ccccc1-2	-2%[8 µM]	>57
71	CCOc1ccc(NC(=O)CCN2CCN(c3ccccc3OC)CC2)cc1	10%	>57
72	O=c1c2c(nc3n1CCCCC3)sc1c(O)cccc12	-4%	>57
73	CCC#CCOCC(=O)Nc1ccccc1	3%	>57
74	O=C(c1cc(-c2ccco2)on1)N1CCc2ccccc2C1	-14%	>57
75	C=C(C)[C@H]1CC=C(C)C(=O)C1	0%	/
76	Nc1nc(CC(=O)O)cs1	0%	/
77	O=C(NC[C@H]1CCCCN1)c1cc(OCC(F)(F)F)ccc1OCC(F)(F)F	?	>57&>57
78	O=C(O)c1ncn(Cc2ccccc2)c1C(=O)O	9%	>57
79	OCCNCc1ccc(OC2CCCC2)cc1	-15%	>57
80	O=C(C1CCCN(S(=O)(=O)c2ccc(F)cc2)C1)N(Cc1cccs1)C1CC1 (configuration not stated)	-5%	>57

Following part:
No.	molecule	LT uptake inh	SmPrx2 inh
81	O=C(O)c1cc(S(=O)(=O)N2CCCCC2)ccc1F	?	>57
82	CCCCn1c(SCC(=O)N2CCN(c3ccccc3)CC2)nc2ccsc2c1=O	16%	>57
83	O=C(CN1CCOc2ccccc21)NC1CC1	-8%	>57
84	CC(=O)c1cccc(NC(=O)NCc2cccs2)c1	/	>57
85	CCOC(=O)C1=C(CC)Nc2ccccc2N=C1NC(=O)c1cccc(S(=O)(=O)N2CCCC2)c1	?	>57
86	N#Cc1nc(-c2cccs2)oc1N1CCOCC1	7%	/
87	CC(C)OC(=O)C1C(=O)NC2(C)CC1c1ccccc1O2 (configuration not stated)	0%	>57
88	Cn1c(=O)c2c(nc(NC3CCCCC3)n2CC(O)COc2ccccc2)n(C)c1=O (configuration not stated)	/	>57
89	COc1ccc(-c2nc3cnc(N4CCN(C)CC4)nc3n(CCC#N)c2=O)cc1	?	>11
90	CC(C)OC(=O)CSc1nnnn1-c1ccc2c(c1)OCCO2	9%	>57
91	Cc1cc(C)n(-c2nc3ccccc3nc2Nc2ccc3c(c2)OCO3)n1	?	>57
92	O=C(O)CNCC1COc2ccccc2O1 (configuration not stated)	-1%	>57
93	O=C(CCNS(=O)(=O)c1cccs1)N1CCCCCC1	11%	>57
94	Cc1ccc(CCN2CC(C(=O)NCc3cccnc3)CC2=O)cc1 (configuration not stated)	-6%	>57
95	CC(C(=O)N1c2ccc(F)cc2CCC1C)N1C(=O)c2ccccc2C1=O (configuration not stated)	-7%	>57
96	C[C@H]1COC(=O)[C@H](Cc2ccccc2)NC(=O)[C@@H](C)COC(=O)[C@H](Cc2ccccc2)NC1=O	1%[1.6 µM]	/
97	COc1ccc(C(=O)Nc2ccc(S(=O)(=O)Nc3onc(C)c3C)cc2)cc1	-16%	>57
98	OC[P+](CO)(CO)CO	-25%	/
99	CC(=O)Nc1ccccc1C(=O)N1CC2(C)CC1CC(C)(C)C2 (configuration not stated)	6%	>57
100	CCOC(=O)Cn1c(=O)oc2cc(S(=O)(=O)NCCc3ccc(OCC)c(OCC)c3)ccc21	/	>57

(more compounds)
No.	molecule	LT uptake inh	SmPrx2 inh
101	O=C(C[C@@H](C(=O)O)N1CCOCC1)c1ccccc1	-5%[8 µM]	>57
102	O=C(CNC(=O)c1ccco1)OCc1ccc(Cl)cc1	?	>57
103	N=C(N)SCCN1CCCCC1	3%[8 µM]	>57
104	Cc1nc2sc(C(c3cccs3)N3CCC(C(N)=O)CC3)c(O)n2n1 (configuration not stated)	22%	>57
105	COc1ccc(CNc2ncncc2-c2cccnc2)c(OC)c1	3%	>57
106	CNc1ccnc(-c2ccccc2C(F)(F)F)n1	2%	>57
107	CCN1C(=O)CC(Sc2ccccc2N)C1=O (configuration not stated)	1%	>57
108	CC(NC(=O)CC1Nc2ccccc2NC1=O)c1ccccc1 (configuration not stated)	11%	>57
109	COc1ccc(OC)c(NC(=O)CN2C(=O)C3(OCCCO3)c3ccccc32)c1	-18%	>57
110	CCC(CC)C(=O)NCCc1cc2ccc(C)c(C)c2[nH]c1=O	-7%	>57
111	COc1ccc(C2=NOC(C(=O)NCCCN3CCOCC3)C2)cc1 (configuration not stated)	-1%	>57
112	COC(=O)c1nc(NC(C)=O)n[nH]1	3%	>57
113	Cc1ccnc(NC(=O)c2c(O)c3ccccc3n(C)c2=O)c1	-4%	>57
114	S=C(Nc1ccccc1)Nc1ccccc1C#Cc1ccccc1	?	>11
115	O=c1[nH]c(SCC2CCCCO2)nc2ccccc12 (configuration not stated)	?	>57
116	Cn1c(=O)cc(NCCc2ccccc2)[nH]c1=O	-5%	/
117	COC(=O)Cn1c2ccccc2c2nc(C)sc21	-6%	>57
118	CCC(NC(=O)NCc1cccnc1)(C(F)(F)F)C(F)(F)F	?	>57
119	O=C(NC1c2ccccc2-c2ccccc21)c1ccco1	-22%	>57

Not all compounds are listed; count on the stated rates, not on these rows.
